Bioassay records (PubChem)
HSV augment = HSV replication enhancement. HSV replication augmentation in cells, fold increase. maximum fold increase. 0.005% of 220,000 active;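 active = peak rise of 1.5-fold or more in the series; inconclusive = self-fluorescent or not available for retest; tested in PC3 cells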;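 also: first round at 10 µM; read as green reporter fluorescence; hits show the peak of a series up to 25 µM; 1 = signal of infected wells without compound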
PKD1 inh = inhibitors of human PKD1 kinase; inhibition, %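 (about 10 µM by stock and volumes)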; PKD1 kinase fluorescence polarization assay; AID 797; Q15139; 0.056% of 200,000 active;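 active = inhibition of 50% or more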;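 also: controls were vehicle for no effect and a reference inhibitor for full effect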
Insulin prom inh = TRM-6 insulin promoter activity inhibition | TRM-6 cells (human fetal islet line), insulin promoter-eGFP reporter, imaging; reporter expression induced with tamoxifen | inhibition, % at 2 µM | 0.9% of 130,000 active;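 active = inhibition above the mean plus 3 SD, with well images judged a real hit on visual review, cut at about 60% in these data, passing the limit was not always enough; inconclusive = inhibition over the cutoff but images rejected on review; inactive = inhibition not above the cutoff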
RGS16-Gao = RGS16-Galphao interaction regulator (human) | bead-based flow cytometry RGS16-Galphao binding, fluorescence; actives lie on both sides | binding response (% of control), % at 10 µM | 0.38% of 220,000 active | AID 1441;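 active = below 25% or above 175%, edge rows of some plates excepted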;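 also: Galphao activated by GDP with aluminum fluoride before binding; 100% = wells without compound and 0% = beads without RGS; some results beyond the cut were filed as inactive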
Target sequence (O15492 whole entry, looked up): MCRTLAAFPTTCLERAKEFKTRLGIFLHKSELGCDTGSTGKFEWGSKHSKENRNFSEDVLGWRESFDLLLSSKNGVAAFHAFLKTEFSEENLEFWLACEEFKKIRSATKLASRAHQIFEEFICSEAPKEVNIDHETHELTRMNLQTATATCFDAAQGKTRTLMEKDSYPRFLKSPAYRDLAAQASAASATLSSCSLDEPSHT
Target sequence (P09471 whole entry, looked up): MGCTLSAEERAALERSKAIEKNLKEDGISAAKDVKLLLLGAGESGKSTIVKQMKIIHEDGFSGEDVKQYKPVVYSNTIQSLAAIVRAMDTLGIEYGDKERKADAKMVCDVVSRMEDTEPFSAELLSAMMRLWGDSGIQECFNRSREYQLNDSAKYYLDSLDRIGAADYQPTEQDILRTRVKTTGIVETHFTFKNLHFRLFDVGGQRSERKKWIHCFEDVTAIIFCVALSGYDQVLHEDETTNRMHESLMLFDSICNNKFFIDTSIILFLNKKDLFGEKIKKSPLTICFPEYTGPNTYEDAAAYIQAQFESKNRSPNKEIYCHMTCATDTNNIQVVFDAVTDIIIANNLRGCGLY
GALR2 ag = GALR2 (human) receptor agonism; O43603; activation, %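 (tested at 5 µM)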; 0.48% of 140,000 active; GALR2-expressing cells, agonist activation read-out;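 active = above mean plus 3 SD of all compounds, about 5% in these data, not always enough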;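 also: 0% = vehicle buffer wells and 100% = reference agonist at full effect; tested in CHO reporter cells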
Target sequence (O43603 whole entry, looked up): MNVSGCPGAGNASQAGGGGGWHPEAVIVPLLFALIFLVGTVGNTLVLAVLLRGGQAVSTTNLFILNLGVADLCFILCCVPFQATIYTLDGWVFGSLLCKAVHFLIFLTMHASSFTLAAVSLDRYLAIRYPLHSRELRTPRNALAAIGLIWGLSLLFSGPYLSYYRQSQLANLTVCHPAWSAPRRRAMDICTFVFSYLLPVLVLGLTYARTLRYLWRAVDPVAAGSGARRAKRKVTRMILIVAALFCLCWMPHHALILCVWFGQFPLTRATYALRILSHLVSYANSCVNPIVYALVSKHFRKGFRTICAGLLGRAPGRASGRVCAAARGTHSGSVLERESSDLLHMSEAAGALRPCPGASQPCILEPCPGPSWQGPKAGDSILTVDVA
Insulin prom inh cell count = recorded beside Insulin prom inh, whose call it bears; normalized cell count, %; measured here: cell count, toxicity; reference of the scale not given here;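 cells exposed to compound for 48 h; stained nuclei by imaging scaled within each plate; lower means fewer cells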
HSV augment primary fold = also measured in HSV augment; calls as there; fold increase; compound at 10 µM; measured here: primary screen fold increase 10 uM; tested in PC3 cells;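 GFP signal in the first replicate; 1 = infected wells without compound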
* = called active by the depositor; i = inactive; ? = inconclusive; . = no result given.

SMILES	HSV augment	HSV augment primary fold	PKD1 inh	Insulin prom inh	Insulin prom inh cell count	RGS16-Gao	GALR2 ag
CCNc1nc(Oc2ccc(C#N)cc2)cc(C(F)(F)F)n1	i	0.92	-8	.	.	100	.
CC(C)(C)c1ccc(COn2ccnc2)cc1	i	0.97	0	.	.	98	.
CCN1C(C)=C(C)S/C1=C1\SC(=S)N(N)C1=O	i	1.1	-3	8	112	98	.
CC1=C(C)CS(=O)N(c2ccc(S(N)(=O)=O)cc2)C1 (configuration not stated)	i	0.94	4	34	72	92	-1.1
O=C(CSc1ccccc1)Nc1cccnc1	i	1	-5	23	94	98	-1.2
CCn1c(COc2ccc(C)cc2)nnc1SCC(=O)C(C)(C)C	i	1.1	3	14	156	101	-0.3
Cn1c(=O)c2c(ncn2CC(=O)N/N=C/c2cn[nH]c2-c2ccc(F)cc2)n(C)c1=O	i	0.87	0	25	100	93	.
C/C(CCC(C)C)=N\Nc1cc(C)c2ccccc2n1	i	1	0	.	.	105	.
Cc1c(-c2ccccc2)oc2c(C(=O)N3CCN(c4ccccc4F)CC3)cccc2c1=O	i	0.7	7	-56	85	112	-1.4
Cc1ccc(S(=O)(=O)C(C#N)c2nc3ccccc3nc2N2CCCC2)cc1C (configuration not stated)	i	1.3	-2	14	113	98	-1.0
Cc1c(Cl)cccc1NC(=O)CSCc1cc(=O)[nH][nH]1	i	1	0	-79	87	98	-2.6
COC(=O)c1ccc(OCC2c3cc(OC)c(OC)cc3CCN2C(C)=O)cc1 (configuration not stated)	i	1.1	2	19	48	98	.
COC(=O)CSc1nnc(-c2cccnc2)n1-c1cccc(OC)c1	i	0.73	-1	57	138	104	-2.1
Cc1csc(SCc2nnc(-c3ccc(Cl)cc3)o2)n1	i	0.93	-12	1	109	104	-2.8
O=C(NC(c1ccccc1)c1ccccc1)C1CCCC1	i	1	-1	.	.	102	0.1
C=CCn1c(SCC#N)nc2sc(CC)cc2c1=O	i	0.95	-6	24	139	105	.
Cc1ccc(-n2[nH]c(=O)c(-c3ccccn3)c2C)cc1	i	1	-2	.	.	99	.
O=C(NCc1ccccc1)NCC12CC3CC(CC(C3)C1)C2	i	0.97	-4	.	.	96	.
Cc1ccc(C(=O)Nc2cccc(C(F)(F)F)c2)cc1NC(=O)c1csc(-c2ccncc2)n1	i	0.79	.	.	.	108	.
O=C1CCN(C(=S)NCCc2ccccc2)CC1	i	0.97	-10	.	.	99	.
O=C(Nc1cccnc1)c1ccc(Cl)cc1[N+](=O)[O-]	i	0.98	-1	-175	56	99	.
COc1nccnc1NS(=O)(=O)c1ccc(NC(=S)NC(=O)c2ccccc2F)cc1	i	1	-12	.	.	99	1.1
O=C1CNC(=O)c2c(nc3n2CCC3)N1	i	0.91	-2	.	.	99	-0.3
Cc1cc(C(=O)NNC(=O)Nc2cccc(C(F)(F)F)c2)no1	i	0.95	-7	.	.	99	.
COC(=O)c1cc2sccc2n1CC(=O)N1CCCc2ccccc21	i	1.1	-2	-193	66	110	-2.4
Cc1csc(N(C(=O)CCNC(=O)c2ccc([N+](=O)[O-])cc2)c2ccccc2)n1	i	0.95	-6	11	88	105	-0.1
Cc1ccc(S(=O)(=O)NNC(=S)Nc2cccc(C)c2C)cc1	i	0.81	.	.	.	103	.
c1coc(-c2nnc(-c3cccs3)o2)c1	i	0.9	-5	27	49	99	-1.2
COc1cc(NC(=S)Nc2ccc(N(C)C(C)=O)cc2)cc(OC)c1	i	0.93	4	.	.	102	.
O=C(O)c1ccc2c(c1)ncn2C1CCCCCC1	i	0.96	4	.	.	104	-0.7
Cc1c(/C=C2\SC(=O)N(CC(=O)Nc3ccc4c(c3)OCO4)C2=O)c2ccccc2n1C	i	0.82	1	.	.	112	-3.2
Cc1ccc(NC(=S)Nc2ccc3cn[nH]c3c2)c(C)c1	i	0.69	5	.	.	99	.
CCC(CC)C(=O)NC12CC3CC(CC(C3)C1)C2	i	0.83	4	-69	114	107	-1.9
O=C1c2ccccc2-c2onc3ccc(NCc4ccco4)c1c23	i	1	60*	-335	79	91	-1.4
CC(c1ccccc1)C(CC(=O)O)C(=O)NC1CCCCC1 (configuration not stated)	i	0.68	0	.	.	108	-1.4
Cn1c(CSc2nc3ccccc3s2)nnc1SCC(=O)NCCN1CCOCC1	i	0.9	.	.	.	101	.
Cc1ccc2c(c1)CC1(CN2C)C(=O)OC2(CCCCC2)OC1=O	i	0.93	-3	-61	139	101	-1.1
C=CCNC(=O)Nc1ccc(F)c(Cl)c1	i	0.96	2	.	.	102	.
O=C1/C(=N\S(=O)(=O)c2cccs2)C([n+]2cccc(Cc3ccccc3)c2)=C([O-])c2ccccc21	i	0.64	.	.	.	101	.
CC(=O)c1c(C)[nH]c(C(=O)CSc2nc3ccccc3c(=O)n2CCCO)c1C	i	0.92	-2	17	162	102	.
COc1cc(CCC(=O)OCC(N)=O)cc(OC)c1OC	i	1.1	-2	.	.	99	.
O=C(CN1CCN(c2ccccc2)CC1)Nc1cccc(C(F)(F)F)c1	i	0.73	-6	.	.	99	-2.2
CC(C)Oc1ccc(C2C(C(=O)c3ccco3)=C(O)C(=O)N2CCCN(C)C)cc1 (configuration not stated)	.	.	-4	-6	161	.	-0.7
Oc1csc(Cc2nc(-c3ccc(Br)cc3)cs2)n1	i	0.96	-3	-6	111	100	.
Cc1nc(NC(=O)CSc2ccc(-c3nc4ccccc4[nH]3)cn2)sc1C	i	0.96	-5	54	87	89	-1.6
COC(=O)C1C(=O)c2c([nH]c(C(=O)OCCOC(C)C)c2C)CC1C (configuration not stated)	i	0.88	8	-16	119	77	-0.1
O=C(O)c1cccc(Nc2nc(N3CCOCC3)nc(N3CCOCC3)n2)c1	i	1.1	-3	-14	187	98	-0.2
CS(=O)(=O)c1ccc2nc(NC(=O)Nc3cccc(Cl)c3)sc2c1	i	0.76	-8	16	109	114	-0.3
CCn1c(SCC(=O)c2cc(C)n(CC3CCCO3)c2C)nc2ccccc21 (configuration not stated)	i	0.99	3	.	.	97	0.7
Cc1ccc(-n2[nH]c(C)c(C=Nc3ccc(C)cn3)c2=O)cc1	i	0.8	-7	.	.	108	-1.4
(list continues)
SMILES	HSV augment	HSV augment primary fold	PKD1 inh	Insulin prom inh	Insulin prom inh cell count	RGS16-Gao	GALR2 ag
Cn1cnnc1SCC(=O)n1c2ccccc2c2ccccc21	i	0.86	6	.	.	90	0.7
CC1(CCc2ccccc2)NC(=O)N(CC(=O)N2CC(=O)Nc3ccccc32)C1=O (configuration not stated)	i	0.99	.	.	.	100	.
O=C(COc1ncnc2ccccc12)c1ccc2c(c1)OCCO2	i	0.86	-13	7	138	127	-3.0
Cc1c(CC(C)C)nc(N)c(C#N)c1-c1ccccc1	i	0.86	-3	4	111	95	-1.1
CN(Cc1nc2ccccc2n1C)S(C)(=O)=O	i	0.88	-3	-23	78	107	-1.1
CC(C)(C)NC(=O)COC(=O)c1ccc(S(=O)(=O)N2CCCCCC2)cc1	i	1.2	2	.	.	99	-0.7
O=C(c1ccc(Cl)cc1)C1CCN(C(=O)NC2CCCCC2)CC1	i	1	-12	-24	57	105	-3.0
CN(C)C(=S)NC(=O)C(c1ccccc1)c1ccccc1	i	0.95	4	.	.	102	.
c1csc(C2Nc3cccc4cccc(c34)N2)c1	?	.	3	.	.	97	-5.0
CCOc1ccc(NC(=O)CC(NCc2ccccn2)C(=O)O)cc1 (configuration not stated)	i	1.1	-2	.	.	96	.
Cc1ccccc1NS(=O)(=O)c1ccc(N2CCCC2=O)cc1	i	0.78	-7	-3	15	105	-0.2
O=C(COC(=O)c1cc([N+](=O)[O-])ccc1NCc1ccccc1)NCc1ccccc1Cl	i	0.94	1	.	.	56	-2.2
Cn1cccc1/C=C1\SC(=S)N(NC(=O)c2ccccc2O)C1=O	i	1.1	.	.	.	91	.
O=C(NC1CC1)C1=C[C@H](c2c[nH]c3ccccc23)C[C@H](OCCCCO)O1	i	0.92	.	.	.	86	.
CN(C)CCCNC(NC(=O)c1cccs1)C(Cl)(Cl)Cl (configuration not stated)	i	0.93	-1	.	.	110	-1.5
Cc1ccc(Cn2nc(C)c(NC(=O)CSc3nc4c(c(C(F)(F)F)n3)CCc3ccccc3-4)c2C)cc1	i	0.98	-13	.	.	101	-1.0
N#CC1=C(N)C(C#N)(C#N)[C@H](c2ccncc2)[C@H]2CC3(CC=C12)OCCO3	i	1.2	-1	-24	111	109	-0.6
CCc1ccc(NC(=O)C2CC(=O)N=C(N)S2)cc1 (configuration not stated)	i	1	-1	-100	71	103	-2.1
CCOC(=O)c1ccc(NC(=O)NCc2ccccc2)cc1	i	0.89	-4	.	.	102	.
COc1ccc(CN2CCCCC2C)cc1C (configuration not stated)	i	1	0	0	117	106	1.3
O=C1c2ccccc2C(Nc2ccc(Cl)cn2)N1c1ccccn1 (configuration not stated)	i	0.97	-7	.	.	101	-2.1
O=C(Cc1ccc(Cl)cc1)c1c[nH]c(C(=O)NCc2cccnc2)c1	i	0.88	-1	-45	92	101	.
CCc1ccc2c(c1)C1(C(=O)N2)N2CCCC2C(C(=O)c2ccc3ccccc3c2)C12C(=O)Nc1ccccc12 (configuration not stated)	i	0.83	3	-10	70	97	2.2
CCN(CC)c1ccc(N2C(=O)/C(=C/c3cccs3)SC2=S)cc1	i	0.86	-4	21	199	99	-3.2
CCOC(=O)c1c(C)n(C)c2ccc(OC(=O)c3ccc(N4C(=O)CCC4=O)cc3)cc12	i	0.89	-13	14	127	97	0.4
O=C1c2ccccc2OC2(C=Cc3ccccc3O2)N1Cc1ccccc1 (configuration not stated)	.	.	0	.	.	108	-0.9
Cc1ccccc1-c1nnn(CC(=O)Nc2cccc(S(N)(=O)=O)c2)n1	i	0.93	-3	0	137	98	.
Cc1nn(C(C)C(=O)NCCCc2ccccc2)c(=O)c2cc3occc3n12 (configuration not stated)	i	1	4	-50	104	167	-2.6
CC(C)(C)C(=O)Nc1ccccc1C(=O)OCC(=O)c1ccc2c(c1)OCCO2	i	1	-5	.	.	94	-1.0
CCCCc1cc(=O)oc2cc(O)ccc12	i	0.91	-2	.	.	98	.

Part of the list above in order of SMILES length, falling:
SMILES	HSV augment	HSV augment primary fold	PKD1 inh	Insulin prom inh	Insulin prom inh cell count	RGS16-Gao	GALR2 ag
CCc1ccc2c(c1)C1(C(=O)N2)N2CCCC2C(C(=O)c2ccc3ccccc3c2)C12C(=O)Nc1ccccc12 (configuration not stated)	i	0.83	3	-10	70	97	2.2
CCOC(=O)c1c(C)n(C)c2ccc(OC(=O)c3ccc(N4C(=O)CCC4=O)cc3)cc12	i	0.89	-13	14	127	97	0.4
CC(C)(C)C(=O)Nc1ccccc1C(=O)OCC(=O)c1ccc2c(c1)OCCO2	i	1	-5	.	.	94	-1.0
Cc1ccccc1-c1nnn(CC(=O)Nc2cccc(S(N)(=O)=O)c2)n1	i	0.93	-3	0	137	98	.
O=C1c2ccccc2OC2(C=Cc3ccccc3O2)N1Cc1ccccc1 (configuration not stated)	.	.	0	.	.	108	-0.9
O=C1c2ccccc2C(Nc2ccc(Cl)cn2)N1c1ccccn1 (configuration not stated)	i	0.97	-7	.	.	101	-2.1
CCCCc1cc(=O)oc2cc(O)ccc12	i	0.91	-2	.	.	98	.

Remaining list, next part
SMILES	HSV augment	HSV augment primary fold	PKD1 inh	Insulin prom inh	Insulin prom inh cell count	RGS16-Gao	GALR2 ag
C=CCn1c(SCC(=O)c2c(N)n(CCC)c(=O)n(C)c2=O)nc2sc(CC)cc2c1=O	i	0.86	-3	-43	158	97	-1.4
COC(=O)c1c(NC(=O)CC2SC(N)=NC2=O)sc2c1CCCC2 (configuration not stated)	i	0.93	-12	-42	130	99	-0.9
COc1ccc([N+](=O)[O-])cc1NC(=S)NC(NC(=O)Cc1ccc(OC)c(OC)c1)C(Cl)(Cl)Cl (configuration not stated)	i	0.98	0	.	.	89	-1.0
S=C1N(c2ccccc2)C(c2cccc3ccccc23)N2CCCN12 (configuration not stated)	i	0.9	5	13	81	102	-1.9
CCOC(=O)NC(=O)CSc1nc2ccccc2[nH]1	i	0.84	2	.	.	99	.
Cc1cccc(-c2nnc(SCC#N)n2C)c1	i	0.96	-6	16	120	98	.
O=C(C1COc2ccccc2O1)N1CCN(c2ccc(F)cc2)CC1 (configuration not stated)	i	0.97	0	-9	144	100	-0.5
COc1cccc(/C=N/NC(=O)c2[nH]c(C)c(C(=O)N/N=C/c3cccc(OC)c3)c2C)c1	i	0.94	3	.	.	104	-1.1
COCCCNC(=S)Nc1ccc(OC(F)F)cc1C	i	0.97	-2	.	.	98	.
COCCNC(=S)N/N=C/c1ccc([N+](=O)[O-])cc1	i	0.99	.	.	.	103	.
COC(=O)c1ccc(COC(=O)c2ccc(CO)cc2)o1	i	1.1	-3	11	87	124	-0.4
Cc1cccn2c(=O)c3cc(C(=O)NCc4cccnc4)c(=N)n(C(C)C)c3nc12	i	1	-8	-379	48	144	8.7
